# From PubChem BioAssay
# AmpC inh no det – Promiscuous and Specific Inhibitors of AmpC Beta-Lactamase (assay without detergent). Potency, µM (doses to about 28.7 µM), for inactives: at the top dose activity change, negative = inhibition. actives 1.8% (n = 71,000). AmpC nitrocefin hydrolysis, absorbance 480 nm, no detergent; potencies from a single point are estimates. P00811; active = falling curve, for most hits resting on a single point; inconclusive = weak or doubtful change; inactive = flat or rising curve; further: % of control where 0% means no effect; about half of the hits show no inhibition at the top dose; a quarter of the inactives give rising signals
# Target sequence (P00811 whole entry, looked up): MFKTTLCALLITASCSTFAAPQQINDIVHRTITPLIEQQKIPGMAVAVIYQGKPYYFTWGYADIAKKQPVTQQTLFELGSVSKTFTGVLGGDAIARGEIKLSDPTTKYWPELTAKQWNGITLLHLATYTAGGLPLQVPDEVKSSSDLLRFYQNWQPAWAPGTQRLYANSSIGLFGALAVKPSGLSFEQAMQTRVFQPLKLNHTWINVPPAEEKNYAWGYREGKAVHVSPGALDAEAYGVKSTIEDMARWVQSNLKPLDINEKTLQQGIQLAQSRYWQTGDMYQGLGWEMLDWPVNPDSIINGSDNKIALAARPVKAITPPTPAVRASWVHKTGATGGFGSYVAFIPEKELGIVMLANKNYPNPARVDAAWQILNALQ
#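 Enzyme, pH 7.0 phosphate. Compound titrations were pre-incubated with AmpC for 15 min at room temperature before nitrocefin (stock 800 uM) addition; product formation was recorded at 480 nm every 20 s for 4 min.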
# Starred values were filed as active, the others as inactive; & = joins results of further samples; [ ] = remark or other dose. Potency means the concentration at half of the fitted maximal effect. Only part of the results is shown (hit frequency here may not be typical).
molecule	AmpC inh no det
Cc1ccc2[nH]c(=O)c(CN(CC3CCCO3)C(=O)c3ccncc3)cc2c1 (stereo not drawn)	8%
C[C@H]1NC(=O)NC1=O	-5%&-7%[12.8 µM]
CCC(C)NC(=O)c1cnn2c1NC(c1ccc3c(c1)OCO3)CC2C(F)(F)F (stereo not drawn)	32%
O=C(O)c1ccc2c(c1)N(Cc1cccc(F)c1)C(=O)CS2	10%
Cc1cc(C)cc(-n2c(=O)c3sccc3n(CC(=O)NCc3ccco3)c2=O)c1	4%
CNC(=O)[C@]1(C)C[C@H]1[C@H](NC(=O)[C@]1(C)C[C@H]1[C@H](NC(=O)[C@]1(C)C[C@H]1[C@H](NC(=O)[C@]1(C)C[C@H]1[C@H](NC(=O)OCc1ccccc1)c1ccccc1)c1ccccc1)c1ccccc1)c1ccccc1	-3%
OC(CNCC1COc2ccccc2O1)COCc1cccs1 (stereo not drawn)	2%
CCNc1nc(NCC)nc(Nn2cnnc2)n1	-2%
N#CC1=C(N)NC(SCc2ccccc2)=C(C#N)C12CCCCC2	-20%
Cc1cc(C)c(NC(=O)CS(=O)CC(=O)NCC2CCCO2)c(C)c1 (stereo not drawn)	-1%
Cc1ccc(N2C(=O)c3ccccc3C2Nc2cccnc2)nc1 (stereo not drawn)	4µM*[single pt active]
FC(F)(F)c1ccccc1Nc1nccs1	-5%
CNc1nc(-c2ccccc2CN(C)C)nc2ccccc12	12%
COc1ccc(NC(=O)Nc2ncn(Cc3cccc(C(F)(F)F)c3)n2)cc1OC	63%
C[C@@H]1O[C@H](O[C@@H]2CC[C@@]3(C=O)[C@H]4CC[C@@]5(C)[C@@H](C6=CC(=O)OC6)CC[C@@]5(O)[C@@H]4CC[C@]3(O)C2)C[C@H](O)[C@@H]1O	3%[12.8 µM]
CCOC(=O)c1[nH]c2ccc(OC)cc2c1NC(=O)c1nonc1C	16%
CCOc1ccc(N2CC(C(=O)NCc3ccc(F)cc3)CC2=O)cc1 (stereo not drawn)	33%
COc1cc(Sc2ccc(C)cc2)c(OC)cc1N	26%
Cc1ccc(O)c(-c2cc(C(=O)Nc3ccc(S(=O)(=O)N4CC(C)OC(C)C4)cc3)[nH]n2)c1 (stereo not drawn)	12%
C=CCSC1=N/C(=C\c2ccc(C)o2)C(=O)S1	-10%
CC(C)(C)n1nnnc1C(c1cccc(C#N)c1)N1CCCc2ccccc21 (stereo not drawn)	63%
CN1CCN(Cc2cc(COCc3ccccc3)c3cccnc3c2O)CC1	63%
O=C(C1CCN(S(=O)(=O)N2CCC3(CC2)OCCO3)CC1)N1CCOCC1	-1%
NC(=O)c1ncn([C@H]2O[C@@H](CO)[C@@H](O)[C@@H]2O)n1	2%[12.8 µM]
OC1CCCN(c2c3c(nc4cc(-c5cccc(Cl)c5)nn24)CCC3)C1 (stereo not drawn)	44%
Cc1ccc(C)c(NC(=O)C2CC(O)CN2C(=O)OC(C)(C)C)c1 (stereo not drawn)	3%
Cc1ccc(NC(=O)CSc2nnc(Cn3c(=O)sc4ccccc43)n2C)cc1	23%
CCOC(=O)c1ccc(CS(=O)c2ccc(Cl)cc2)o1 (stereo not drawn)	0%
Cc1ccc(N(C(C)C(=O)Nc2ccc3c(c2)OCO3)S(C)(=O)=O)cc1 (stereo not drawn)	-15%
O=C(CCS(=O)(=O)c1ccc(Br)s1)N1CCc2ccccc21	9%
Cc1ccc(-c2nnc3ccc(SC(C)C(=O)O)nn23)cc1 (stereo not drawn)	17%
O=C(c1cc2ccccc2c(=O)o1)N1CCCc2ccccc21	15%
OCCOc1ccccc1	-8%
CCOC(=O)C1(Nc2nccs2)Sc2ccccc2NC1=O (stereo not drawn)	-6%
CC(C)Cc1nnc(NC(=O)CSc2ncn[nH]2)s1	1%
CC(=O)N1CCc2cc(S(=O)(=O)NC(CC(C)C)C(=O)Nc3cc(C)ccn3)ccc21 (stereo not drawn)	46%
Cc1cc(C)n(-c2nc(NCCO)c3c4c(sc3n2)CCCC4)n1	138%
CCCC(=O)C1=C(N(C)c2ccccc2)CC(C)(C)C(C(=O)OC)C1=O (stereo not drawn)	8%
CC[C@H]1NC(=O)c2cc(S(N)(=O)=O)c(Cl)cc2N1	-6%[12.8 µM]
Cc1ccc(-c2nnn(CC(=O)N(CC3CCCO3)C(C(=O)NC(C)(C)C)c3ccc(F)cc3)n2)o1 (stereo not drawn)	86%
O=Cc1ccc(Cl)cc1Cl	-2%
CS(=O)(=O)Nc1ccc([N+](=O)[O-])cc1OC1CCCCC1	31%
c1ccc(-c2nc(-c3ccncc3)no2)cc1	9%
O=C(O)CCC(=O)CCC(=O)c1ccccc1	-4%
CCN1C=CC(=C2C(=O)c3ccccc3C2=O)C=C1	4%
O=S1(=O)C=C(N2CCCCC2)c2ccccc21	-10%
CCn1c(SCC(=O)NCc2cccs2)nnc1-c1ccncc1	-6%
COc1ccc2[nH]c(=O)c(CN(Cc3cccs3)S(=O)(=O)c3cccc4nsnc34)cc2c1	9%
Cc1ccc(C)c2[nH]c(=O)c(CCNC(=O)C(C)(C)C)cc12	1%
Cc1ccc(NC(=O)CSc2nnc(Cn3cnc4ccccc43)o2)cc1	37%

# Continued:
molecule	AmpC inh no det
COc1ccc(Cl)cc1NC(=O)c1ccoc1C	-11%
O=C(NCCCN1CCOCC1)c1ccc(CS(=O)(=O)c2cccc(C(F)(F)F)c2)o1	-7%
Cc1nn(Cc2ccccc2)c(C)c1C(=O)OCC(=O)c1cc(C)n(C2CC2)c1C	50%
O=C(CSc1ccc2nnc(-c3ccc(Cl)cc3)n2n1)N1CCCC1	10%
Cc1c(C(=O)NCc2ccccc2Cl)oc2c1C(=O)CCC2	7%
O=C(CN1CCOCC1)Nc1ccc(S(=O)(=O)NC2CCCCC2)cc1	-3%
Cc1ccc(N2CCN(C(=O)c3ccccc3Br)CC2)c(C)c1	50%
O=[N+]([O-])c1ccc2c(c1)Cc1cc(N=Cc3ccc4c(c3)OCO4)ccc1-2	4%[5.75 µM]
Nc1cc(N)c(OCC(F)(F)F)cc1OCC(F)(F)F	-6%
CS(=O)(=O)Nc1cccc(C(=O)CC2(O)C(=O)Nc3ccc(Br)cc32)c1 (stereo not drawn)	-3%
C/C(=C\[C@@H](N)C(=O)O)CP(=O)(O)O	8%
Cc1occc1-c1nnc(SCC(=O)Nc2ccccc2N2CCCCC2)n1C	70%
Cc1cc2ccccc2c(=O)n1CC(=O)NCC1COc2ccccc2O1 (stereo not drawn)	14%
CSc1nc(N)c2ncn([C@@H]3O[C@@H](COP(=O)(O)OP(=O)(O)OP(=O)(O)O)[C@@H](O)[C@H]3O)c2n1	-1%
Cc1ccc2nc3c(cc(C(=O)NCC4CCCO4)n3C)c(=O)n2c1 (stereo not drawn)	16%
O=C(Nc1nnc(/N=C/c2ccco2)s1)c1ccc(F)cc1	-10%
CCC(=O)Nc1cc(=O)[nH]c2ncnn12	-10%
COc1cc(-c2ccc(=O)[nH]n2)ccc1OC(F)F	14%
Cc1cc(C)c2c(CC(=O)O)coc2c1	-2%
N#Cc1nc(COc2ccc(Cl)cc2Cl)oc1N1CCN(c2ccccc2)CC1	-22%
CCOc1ccc2nc(NS(=O)(=O)c3ccc4c(c3)n(C)c(=O)n4C)sc2c1	-8%
Cc1nc2cc3nc(C)sc3cc2s1	16%
CCOC(=O)c1cc2c3ccccc3n(CC)c2nc1N	33%
COC(=O)[C@@]1(Cc2ccc(OC)cc2)[C@H]2c3cc(C(=O)N(C)C)n(CCN4CNCC4=O)c3C[C@H]2CN1C(=O)c1ccccc1	176%
O=C(NCc1ccco1)C1CC(=O)N(CCc2ccccc2)C1 (stereo not drawn)	1%

# Part of the list above, reformatted.
Cc1nn(Cc2ccccc2)c(C)c1C(=O)OCC(=O)c1cc(C)n(C2CC2)c1C
- AmpC inh no det = 50%

CCOc1ccc2nc(NS(=O)(=O)c3ccc4c(c3)n(C)c(=O)n4C)sc2c1
- AmpC inh no det = -8%

Cc1c(C(=O)NCc2ccccc2Cl)oc2c1C(=O)CCC2
- AmpC inh no det = 7%

# Continued:
molecule	AmpC inh no det
CSc1ccc(C(C(C(=O)c2cccs2)N2CCOCC2)N2CCOCC2)cc1 (stereo not drawn)	63%
O=C(Cn1nc(-c2ccc(Cl)cc2)ccc1=O)NCCN1CCOCC1	31%
CN(C)/C=C1/Nc2ccccc2C1=O	-4%
C=C(C)COc1ccc(-c2nc(N)nc(C)c2Oc2ccccc2OC)c(O)c1	-12%
O=C(NC1CCCc2ccccc21)C1CCCN(S(=O)(=O)c2cnc[nH]2)C1 (stereo not drawn)	9%
Cc1ccc(-n2c(N)c(C(=O)N3CCOCC3)sc2=S)c(C)c1	25%
CCn1c(COc2ccccc2C)nnc1SCC(=O)NC1CCCC1	56%
COc1ccccc1N1C(=O)CC(Nc2ccc(N3CCOCC3)cc2)C1=O (stereo not drawn)	-4%
CCOC(=O)C1=C(C)NC(C)=C(C(=O)OC)[C@H]1c1cccc([N+](=O)[O-])c1	44%&14%
N#CCCn1c(SCC(=O)NCC2CCCO2)nc2ccccc21 (stereo not drawn)	5%
CCOC(=O)c1ccc(NC(=O)CSc2nnc(CNC(=O)c3c(F)cccc3Cl)o2)cc1	15%
CC(C)NC(C)C	-9%
Cc1nc2ccccn2c1C(=O)c1ccccc1	-6%
COC(=O)CSc1ccc2nnc(-c3ccc(F)cc3)n2n1	10%
Cc1c(C(=O)N2CCN(c3ccccn3)CC2)oc2ccccc12	12%
CCOC(=O)c1ccc(-c2n[nH]c(=O)c3ccccc23)cc1	12%
COc1ccc(C(F)(F)F)cc1NC(=O)c1nc2nc(C)cc(C(F)F)n2n1	5%
CCOC(=O)c1c(C)oc2c1c(C(c1cccnc1)N1CCN(C)CC1)c(O)c1ccccc12 (stereo not drawn)	122%
NC(=O)C1CCN(C(=O)CN2CCN(c3cccc(C(F)(F)F)c3)CC2)CC1	24%
CCc1cc2c3c(c(=O)oc2cc1OC)CCCC3	18%
CCCCOC(=O)Nc1nc2ccc(OC)cc2s1	2%
O=C(NCc1ccco1)c1cc(-c2cccnc2)nc2ccccc12	26%
C[C@@]12Cc3cnc(-c4ccccc4)nc3C[C@@H]1CC[C@@H]1[C@H]3CC[C@@](C)(O)[C@]3(C)CC[C@@H]12	11%[5.75 µM]
Cc1nc2nc(COc3ccccc3)[nH]n2c(=O)c1C	-6%
CCOCCCNC(=O)C1CCN(C(=O)N(C)C)CC1	-3%

# 6 compounds picked at random from the list so far:
molecule	AmpC inh no det
COc1ccccc1N1C(=O)CC(Nc2ccc(N3CCOCC3)cc2)C1=O (stereo not drawn)	-4%
C[C@@]12Cc3cnc(-c4ccccc4)nc3C[C@@H]1CC[C@@H]1[C@H]3CC[C@@](C)(O)[C@]3(C)CC[C@@H]12	11%[5.75 µM]
Cc1nc2nc(COc3ccccc3)[nH]n2c(=O)c1C	-6%
CCn1c(COc2ccccc2C)nnc1SCC(=O)NC1CCCC1	56%
O=C(NCc1ccco1)c1cc(-c2cccnc2)nc2ccccc12	26%
O=C(NC1CCCc2ccccc21)C1CCCN(S(=O)(=O)c2cnc[nH]2)C1 (stereo not drawn)	9%

# Further compounds follow.
molecule	AmpC inh no det
COc1ccc(N2CCN(C(=O)c3ccc(NS(=O)(=O)c4cccc(F)c4)cc3)CC2)cc1	13%
O=C(CCCn1c(=O)[nH]c2ccsc2c1=O)N1CCN(Cc2ccc3c(c2)OCO3)CC1	54%
COC(=O)c1nn(-c2c(C)n(C)n(-c3ccccc3)c2=O)cc1O	4%
CCNS(=O)(=O)c1ccc(NC(=O)Cc2ccc(F)cc2)cc1	-2%
Cc1ccc(NC(=O)C2CCCN2S(=O)(=O)c2cccc3cccnc23)cc1F (stereo not drawn)	24%
O=C(CCCOc1ccc(Cl)cc1)N1CCOCC1	20%
CCOC(=O)c1sc2nc(N3CCOCC3)c3c(c2c1N)CCN(C)C3	61%
O=C(CSc1nnc(-c2cccs2)o1)OCc1ccccc1	-3%
COc1cc(C(=O)NCC(=O)OCC(=O)c2ccc[nH]2)cc(OC)c1OC	-5%
Cc1sc(NC(=O)CSc2nnc(C)c(=O)[nH]2)c(C#N)c1C	-10%
Cc1nc2c(C(=O)N3CCN(c4ccccn4)CC3)cnn2c(C)c1Cc1cccc(Cl)c1	107%
Nc1nc2c(ncn2[C@@H]2C=C[C@@H](CO)C2)c(=O)[nH]1	-4%[5.75 µM]
Cn1c(=O)cnc2cnc(OCc3ccccc3)nc21	-5%
COc1ccc(CCn2c(N)cc(=O)[nH]c2=S)cc1OC	3%
COC(=O)[C@H](C)NC(=O)Nc1ccc(OC)c(OC)c1	-10%
Fc1cccc(CN2CCCCCCC2)c1	-3%
CCOC(=O)N1CCN(S(=O)(=O)c2ccc(C(=O)Nc3nc4ccccc4s3)cc2)CC1	68%
Cc1cc(NC(=O)NC(=O)c2cccc(OC(F)(F)C(F)F)c2)n[nH]1	-10%
Cc1ccc(S(=O)(=O)N2CCN(C(=O)CN3CCN(C)CC3)C2)cc1	-4%
N#Cc1ccc(CSc2nnc(-c3ccncc3)n2CCc2ccccc2)cc1	66%
CCOC(=O)c1cccc(NC(=O)C2CCCO2)c1 (stereo not drawn)	-2%
CCc1nnc2sc(-c3cc(-c4ccccc4)nc4ccccc34)nn12	93%
O=C(Cn1ncc2ccccc21)N1CCC2(CC1)OCCO2	-4%
COc1ccc(S(=O)(=O)N2Cc3ccccc3CC2C(=O)O)cc1OC (stereo not drawn)	8%
Cc1ccc(-c2nnn(CC(=O)N(c3ccccc3F)C(C(=O)NC3CCCC3)c3ccco3)n2)o1 (stereo not drawn)	44%
